Assay outcomes as filed in PubChem BioAssay.
NPR1 antag = antagonists of human natriuretic peptide receptor Npr1; Potency, µM (titrated, usually from 46.3 µM), without a hit: at the highest dose activity change, negative = inhibition, usual class: inhibitors; AID 1347048; P16066; 1.6% of 76,000 active; HEK293 hNpr1 GloSensor cGMP, ANP-stimulated luminescence; active = well fitted inhibition curve with a large enough effect; inconclusive = small, poorly fitted or top-dose-only effect; inactive = no such curve, though single readings can be large or run the other way;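 also: nearly all actives have a fitted effect of over 60% in size; nearly all hits also lower the signal before the agonist is added; a reference antagonist and vehicle were the controls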
Target sequence (P16066 whole entry, looked up): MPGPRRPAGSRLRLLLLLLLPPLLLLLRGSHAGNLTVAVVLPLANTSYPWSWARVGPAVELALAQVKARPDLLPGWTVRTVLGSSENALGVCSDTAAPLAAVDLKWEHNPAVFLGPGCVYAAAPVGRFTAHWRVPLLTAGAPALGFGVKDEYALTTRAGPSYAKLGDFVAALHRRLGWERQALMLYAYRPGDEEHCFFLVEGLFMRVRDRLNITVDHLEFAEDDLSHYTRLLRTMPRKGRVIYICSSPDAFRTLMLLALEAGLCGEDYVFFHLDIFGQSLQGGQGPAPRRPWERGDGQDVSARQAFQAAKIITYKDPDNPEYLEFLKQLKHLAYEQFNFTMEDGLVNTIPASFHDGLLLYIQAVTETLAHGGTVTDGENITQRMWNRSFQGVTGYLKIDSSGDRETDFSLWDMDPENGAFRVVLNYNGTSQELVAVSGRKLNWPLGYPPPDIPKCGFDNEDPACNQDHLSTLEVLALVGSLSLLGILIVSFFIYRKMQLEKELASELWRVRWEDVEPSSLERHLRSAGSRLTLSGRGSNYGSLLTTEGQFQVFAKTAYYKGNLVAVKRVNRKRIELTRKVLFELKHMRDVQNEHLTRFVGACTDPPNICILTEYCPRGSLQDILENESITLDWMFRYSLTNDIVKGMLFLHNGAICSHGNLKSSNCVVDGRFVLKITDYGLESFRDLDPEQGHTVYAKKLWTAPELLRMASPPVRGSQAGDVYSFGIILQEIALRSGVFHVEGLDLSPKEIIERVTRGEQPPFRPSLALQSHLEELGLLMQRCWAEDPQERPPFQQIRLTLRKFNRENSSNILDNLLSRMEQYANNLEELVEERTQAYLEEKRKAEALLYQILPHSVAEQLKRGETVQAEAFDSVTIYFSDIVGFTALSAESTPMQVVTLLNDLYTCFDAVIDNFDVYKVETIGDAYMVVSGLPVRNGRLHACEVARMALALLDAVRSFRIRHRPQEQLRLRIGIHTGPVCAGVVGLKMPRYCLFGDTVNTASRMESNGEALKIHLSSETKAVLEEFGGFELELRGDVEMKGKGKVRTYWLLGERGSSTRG
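Compound pre-incubated 30 min at room temperature on GloSensor-loaded HEK293 cells stably carrying hNpr1 and the pGS-40F cGMP biosensor. Stimulation uses hNppA at 0.1 nM final; luminescence is taken at baseline and 20 min post-agonist.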
An asterisk follows results filed as active; ? = inconclusive; [ ] = dose if it differs, or a comment. % is scaled to controls: 0 for no effect and ±100 for the full control effect; potency is read from the fitted curve at half-maximal effect. Not all compounds are listed; rates above refer to the full screens.

Compound	NPR1 antag
CC1(C)[C@H](Cc2cc(CN3CCCCC3)on2)C[C@@H]1NC(=O)c1ccccc1	0%[70.6 µM]
CCOc1ccccc1C1NC(=O)N(CC(=O)Nc2ccccc2OC)C2=C1C(=O)OC2 (centres undefined)	0%
Cn1nccc1CN1CCC2(CN[S+](=O)([O-])c3ccccc3N2)C1 (centres undefined)	0%
O=C(O)c1ccccc1-c1cn(Cc2nnc3ccccn23)nn1	5%
COc1ccccc1N1CCC(N2CCN(CCCc3ccccc3)C(CCO)C2)CC1 (centres undefined)	-8%
Cc1cccc(C(=O)N2C(C(=O)NCC(C)C)COC23CCN(C(=O)c2ccc(F)cc2)CC3)c1 (centres undefined)	0%
O=C1NC2(CCN([S+](=O)([O-])c3cccs3)C2)Oc2ccccc21 (centres undefined)	7%
Cn1nc(C(=O)N2CC[C@H]3C(=O)NCCCCCCN(Cc4ccncc4)[C@@H]3C2)c2ccccc21	-4%
CC(C)(C)C(=O)N1CCC2(CC1)CC(c1ccccc1)C(=O)N(C1CC1)C2 (centres undefined)	4%
COCCn1ccc2c(C3=CCOCC3)nc(-c3cccc4[nH]ccc34)cc21	-1%[70.6 µM]
O=C(c1ccccc1F)N1CCC2(CC1)NC(=O)N(Cc1ccccc1)C2=O	4%
O=c1n(-c2ccc(F)cc2F)nc2n1CCN([S+](=O)([O-])c1cccs1)C2	21%
O=C(NC1CCCC1)N1CCCC(Cc2nncn2Cc2ccccc2)C1 (centres undefined)	1%
COc1ccc(CN2CCc3nc(N4CCN(C)CC4)[nH]c(=O)c3CC2)cc1	7%
CCNC(=O)O[C@@H]1CO[C@H]2[C@@H]1OC[C@@H]2Nc1nccc(-c2cccs2)n1	1%[70.6 µM]
COc1ccc(-c2cc(-c3c(C)noc3C)cc3c2C(=O)N(C)C3)cn1	?
O=C(NCc1ccccn1)C1CCN(C2CCN(C3CCCCC3)CC2)CC1	-2%
CCc1cn(C[C@H](NCCC(C)C)C(=O)O)c(=O)[nH]c1=O	-2%[70.6 µM]
Cc1cc(C)n(CCC(=O)N2CC(Oc3ccccc3-c3nc(C4CC4)no3)C2)n1	4%
Cc1cccc(N2CCN(C(=O)C3CCN(C(=O)C4CC4)CC3)CC2)n1	7%

Continuation.
Compound	NPR1 antag
CCCn1cc(NC(=O)CC[C@H]2NC(=O)c3ccccc3NC2=O)c(C)n1	0%
COc1ccccc1C(=O)N1CCc2c(nc3cc(-c4ccccc4Cl)[nH]n3c2=O)C1	-9%
Cc1nc(N2CCN(C(=O)Cc3ccc(Cl)cc3)CC2)cc(C(F)(F)F)n1	3%
Cn1cnc(S(=O)(=O)N2CCC(N3C(=O)C4(CCCCC4)C3c3ccncc3)CC2)c1 (centres undefined)	4%
NC(=O)c1nnn([C@H]2CCN3C(=O)[C@@H](Cc4ccccc4)NC(=O)[C@@H]3C2)c1C(N)=O	-2%[70.6 µM]
CS(=O)(=O)N1CCCC(C(=O)NC2CCCCC2)CCNC(=O)CC1 (centres undefined)	1%
O=C(c1nnc(CNCc2cccc(F)c2)n1-c1cccnc1)N1CCC[C@@H]1C(c1ccccc1)c1ccccc1	-14%
CCn1ccc2oc(C)c(C(=O)N3CCN(c4ccccc4Cl)CC3)c2c1=O	-2%
N#Cc1ccc(NCc2cc3n(n2)CCCN(C2CCCCC2)C3)nc1	-4%
CCS(=O)(=O)N1CCCCC(NC(=O)c2scc3c2OCCO3)C1 (centres undefined)	0%
COc1ccc(C(=O)N[C@@H]2CCC[C@@H]2C(=O)N2CCN(c3ccc(Cl)cc3)CC2)cc1	-22%
O=C(c1ccccc1)N1CCCC2(C1)Nc1cccnc1NC2=NCc1ccccc1 (centres undefined)	-2%
COc1ccc2cc(C(=O)N3CCC4(CC3)CC(c3nc(C)no3)N(C)C4)[nH]c2c1 (centres undefined)	0%
Cc1ccc(C2Cn3nnc(C(=O)NCc4ccccc4C)c3CO2)cc1 (centres undefined)	-16%
O=C(COc1ccccc1)Nc1ccc2n(c1=O)C[C@H]1C[C@@H]2CN(C(=O)c2cccnc2)C1	4%
O=C(N[C@@H]1CCN(C(=O)c2n[nH]c3ccccc23)C[C@H]1O)c1cccnc1	2%
C=CCNC(=O)N[C@H]1[C@H](O)[C@@H](N2CCN(c3ccccc3OC)CC2)[C@@H]2OC[C@H]1O2	0%[70.6 µM]
O=C1NC2(CCN(C(=O)c3ccccc3F)C2)N=C1c1cccnc1 (centres undefined)	2%
CC(=O)N1CCC(C(=O)N2[C@@H]3CC[C@H]2CC(NC(=O)c2ccc(F)cc2)C3)CC1 (some centres undefined)	2%
Cn1cccc1CN1CCCCCNC(=O)[C@@H]2CCC[C@@H]21	-10%

Next structures follow:
Compound	NPR1 antag
O=C1NCCCCCCN(Cc2cccc(OC(F)(F)F)c2)[C@H]2CCC[C@@H]12	-8%
O=C(NC1CC1)[C@H]1O[C@H](CCN2CCN(Cc3ccccc3)CC2)CC[C@@H]1O	6%[70.6 µM]
CCOc1cccc(CN2C[C@@H](CO)[C@H](c3nc(C)no3)C2)c1	3%
CCN1C(=O)C2(CCN(C(=O)C3CC3)CC2)c2ccccc21	5%
CCn1cc(-c2ccncc2)cc1C(=O)NCc1cccc(F)c1	0%
O=C(O)Cn1ccc2cc(OCCc3cccc(-c4ccc(Cl)cc4)c3)cnc21	-5%[70.6 µM]
COc1ccc(Br)c(C(=O)N[C@@H]2C=C(C(=O)N[C@H](CC(C)C)C(N)=O)C[C@@H](O)[C@@H]2O)c1	-5%
CC(=O)N1CCC(N2CCOC[C@H]2c2ncc(-c3ccc(S(C)(=O)=O)cc3)[nH]2)CC1	5%[70.6 µM]
Cc1cc(NC(=O)c2ccc3c(c2)N(C)C2CCCCCN2C3=O)ccc1Br (centres undefined)	2%
COc1cccc(CN2CCOC3(CCN(Cc4ccc(Cl)cc4)CC3)C2=O)c1	?
O=C(c1cccnc1)N1C[C@@H]2OCC(=O)N(CC3CCCCC3)[C@@H]2C1	-1%[70.6 µM]
COc1ccc(C(=O)N2CCC(c3n[nH]c(=O)n3-c3ccc(C)cc3)CC2)cc1	-2%
CCn1cc(S(=O)(=O)N2CCCC(c3nc(-c4ccccc4)no3)CCNC(=O)CC2)cn1 (centres undefined)	2%
COCCN1C(=O)[C@@H]2C[C@@H](CN2Cc2ccc(OC(F)(F)F)cc2)Oc2ccccc21	10%
COCC1CN(C(C)=O)CC12CCN(C(=O)c1ocnc1C)CC2 (centres undefined)	1%
O=C(c1cncc(F)c1)N1CCOCC2(CN(Cc3cc(F)cc(F)c3)C2)C1	0%[70.6 µM]
COc1cc(CN2CCN(c3ncc(F)cn3)CC2)cc(Cl)c1OC	-21%
CCc1ccc(NC(=O)NCC2CCOCC2)cc1	0%
COCCNC(=O)c1ccc(OC2CCN(Cc3ncc[nH]3)CC2)c(Cl)c1	2%
CN1C(=O)Cc2cc(C(=O)N3C[C@@H](CO)[C@H](c4ccccn4)C3)ccc21	10%

More records.
Compound	NPR1 antag
COCCn1ncc(N2CCC(C(=O)N3CCc4ccccc4C3)C2)cc1=O (centres undefined)	9%
Cc1ncccc1C(=O)NCC12CCC=C1N(C)C(=O)CC2 (centres undefined)	4%
Cc1ccc(C(=O)N2CCc3nc(-c4ccccc4)nc(-c4ccc(Cl)cc4)c3C2)cc1	-12%
CC(C)n1ccc2c(NC(=O)C[C@H]3NC(=O)c4ccccc4NC3=O)cccc21	4%
Cc1cnn(CCC(=O)N[C@@H]2CN(Cc3ccccn3)C[C@H]2CN(C)C)c1	6%
Cc1ccc(CN2CCC(c3nn(Cc4ccccc4)c(=O)[nH]3)CC2)cc1	14%
COc1ccc(-c2nc(Cn3c(-c4ccc(Cl)cc4)nc(C)c(CCO)c3=O)c(C)o2)cc1	-4%
COC(=O)C1=C(C)N=C2SC=C(CC(=O)N3CCCC3)N2C1c1cccc(OC)c1OC (centres undefined)	-9%
CCn1nccc1C(=O)N1CCC(F)(c2nc(-c3ccncc3)no2)CC1	?
CNC(=O)c1cccc2c(C)nnn12	0%[70.6 µM]
CCOc1cccn2c(=O)c(-c3cc(C)n(-c4ccccc4C)n3)c(C)nc12	4%
O=C1NCCCCCN(Cc2cccnc2)[C@@H]2CN(C(=O)NC3CCCCC3)CC[C@@H]12	-2%
COC(=O)C1=CN(CC(=O)Nc2cccc(C)c2C)S(=O)(=O)N=C1C	-8%
O=C1C(O)C2(CCCCC2)N1C1CCN(Cc2ccncc2F)CC1 (centres undefined)	7%
COc1ccc(C(=O)N2CCC[C@H](n3c(=O)n(CC4CC4)c4cccnc43)C2)cc1F	0%
C#CCNC(=O)[C@@H]1CCCN1[C@@H](C(=O)NC)c1ccccc1	5%[70.6 µM]
O=C(NC1CCCN(c2cc(-c3ccccc3)[nH]n2)C1)c1ccc(C(F)(F)F)cc1 (centres undefined)	-7%
Fc1ccc(C2Cn3nnc(-c4nc(-c5ccc(C(F)(F)F)cc5)no4)c3CO2)cc1 (centres undefined)	4%
Cc1ccc(NC(=O)CC2CCCN(c3cn[nH]c(=O)c3)C2)cc1F (centres undefined)	-6%
Cn1nccc1C(=O)N1CC(CNC(=O)c2ccccc2)C2(C1)CN(c1ccccc1)C2 (centres undefined)	7%[70.6 µM]

The last 7 entries of the part before lead into the next:
Compound	NPR1 antag
O=C1C(O)C2(CCCCC2)N1C1CCN(Cc2ccncc2F)CC1 (centres undefined)	7%
COc1ccc(C(=O)N2CCC[C@H](n3c(=O)n(CC4CC4)c4cccnc43)C2)cc1F	0%
C#CCNC(=O)[C@@H]1CCCN1[C@@H](C(=O)NC)c1ccccc1	5%[70.6 µM]
O=C(NC1CCCN(c2cc(-c3ccccc3)[nH]n2)C1)c1ccc(C(F)(F)F)cc1 (centres undefined)	-7%
Fc1ccc(C2Cn3nnc(-c4nc(-c5ccc(C(F)(F)F)cc5)no4)c3CO2)cc1 (centres undefined)	4%
Cc1ccc(NC(=O)CC2CCCN(c3cn[nH]c(=O)c3)C2)cc1F (centres undefined)	-6%
Cn1nccc1C(=O)N1CC(CNC(=O)c2ccccc2)C2(C1)CN(c1ccccc1)C2 (centres undefined)	7%[70.6 µM]
CC1Oc2ccc(NC(=O)c3ccc(F)cc3)cc2CN(Cc2ccccc2Cl)C1=O (centres undefined)	-9%
COC(C(=O)N1CC(=O)N(Cc2cccnc2)CC(OCc2ccccc2)C1)c1ccccc1 (centres undefined)	-9%
CC1=C[C@@H](CNC(=O)C2CC2)[C@H](C(C)C)C[C@H]1Cc1nc2ccncc2[nH]1	-11%[70.6 µM]
COc1ccc(CC(=O)N2CC[C@@H](CC(=O)O)[C@@H](CCN3CCN(c4ccccn4)CC3)C2)cc1	2%
COC1CCN(C(=O)c2cccc(S(=O)(=O)N3CCC(C#N)CC3)c2)C1 (centres undefined)	-6%
O=C(c1ccc2ncccc2c1)N1CCc2c(nc3cc[nH]n3c2=O)C1	-18%
CCCN(C)c1nccnc1OC1CCN(C(=O)c2ccc(OC)nc2OC)C1 (centres undefined)	-21%
CC(=O)N1C[C@@H]2CCCN3CCC[C@@H]([C@H]23)[C@H]1CCCC(=O)NCCCN1CCCC1=O	2%
CC(C)N1CCC(F)(c2nc(-c3ccccc3)no2)CC1	-3%
Cc1ccc(C(=O)COc2cccn3c(=O)c(-c4cc(C)n(-c5ccccc5)n4)c(C)nc23)cc1	6%
COc1ccc2[nH]c3c(c2c1)CCN(C)C31CCN(C(=O)C2CCCC2)CC1	6%
O=C(CC1CCCCC1)Nc1cccc(-c2nnc3n2CCCC3)c1	-10%
Cc1nn(CCO)cc1CN1CCC2(CC1)C(C(=O)O)CC(=O)N2C (centres undefined)	5%
CCn1ncc(N2CCCC(CC(=O)NCCC3=CCCCC3)C2)cc1=O (centres undefined)	2%
CN1C[C@@H](NS(=O)(=O)c2ccc(Cl)cc2)C[C@H]1c1nc(-c2ccncc2)no1	?
Cc1ccc2c(C)c(C(=O)N3CC[C@H](O)[C@@H](O)C3)oc2c1	3%
COc1cc(NC(=O)c2cc3c(N4CCCC4)nc(C)cn3n2)cc(OC)c1OC	0%
Cc1cnn(CCC(=O)N2CCC3(CC2)CN(c2ccncn2)CC3CO)c1 (centres undefined)	1%
CCC1=C(C(=O)OC)C(c2ccc(C)cc2C)N2C(CC(=O)NCC3CCCO3)=CSC2=N1 (centres undefined)	?
CCNC(=O)c1cc(NC(=O)C(C)C)cc2nc(C)ccc12	2%

(continued)
Compound	NPR1 antag
CC(C)Cc1ccc(CN2CCN3C(=O)CNC(=O)C3C2)cc1 (centres undefined)	-3%
CC(C)n1cc(CN2CCC(C3CCN(S(C)(=O)=O)CC3)C2)cn1 (centres undefined)	5%
CCCc1cc(CN(C)c2nc(CCN)nc3sc(C)c(C)c23)[nH]n1	-24%
CC(C)C(=O)N1CCC2(CCC(=O)N(Cc3ccccc3)CC2)CC1	5%
O=C(NCc1ccncc1)c1cn(C2CN(C(=O)C3CC3)C2)nn1	2%
COc1ccc(CNc2ncnc3c2CN(C2CCC2)C(=O)CN3C)cc1	0%
COC[C@@H]1CN(C(=O)Cn2cc(C)cn2)C[C@H]1c1ccccn1	-1%
Cc1nc(-c2cn(C3CCCN(C(=O)C(C)Oc4ccccc4)C3)nn2)no1 (centres undefined)	-2%
COc1ccc(-c2nnc([C@H]3CCN(S(C)(=O)=O)C3)o2)cc1	0%[70.6 µM]
COc1cccc(CNC(=O)c2c(C)oc3ccn(Cc4ccc(F)cc4)c(=O)c23)c1	-19%
